Cruzain noTriton: inhibitors of Trypanosoma cruzi cruzain without detergent. P25779. purified cruzain, Z-FR-AMC fluorescence, no detergent. hit rate 2.3% among 200,000. AID 1476. Potency, µM, for the others: max response, negative = inhibition, actives largely listed as inhibitors; active = well fitted curve in the direction sought with a large enough effect; inconclusive = small, poorly fitted or top-dose-only effect, or another doubt; inactive = no such curve, though single readings can be large; an effect the other way counts as inactive or inconclusive;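 note: plate controls were enzyme without inhibitor for no effect and buffer without enzyme for full effect; nearly all actives have a fitted effect of over 40% in size; top concentration of the series not given in the record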
Target sequence (P25779 123-467 limits assumed): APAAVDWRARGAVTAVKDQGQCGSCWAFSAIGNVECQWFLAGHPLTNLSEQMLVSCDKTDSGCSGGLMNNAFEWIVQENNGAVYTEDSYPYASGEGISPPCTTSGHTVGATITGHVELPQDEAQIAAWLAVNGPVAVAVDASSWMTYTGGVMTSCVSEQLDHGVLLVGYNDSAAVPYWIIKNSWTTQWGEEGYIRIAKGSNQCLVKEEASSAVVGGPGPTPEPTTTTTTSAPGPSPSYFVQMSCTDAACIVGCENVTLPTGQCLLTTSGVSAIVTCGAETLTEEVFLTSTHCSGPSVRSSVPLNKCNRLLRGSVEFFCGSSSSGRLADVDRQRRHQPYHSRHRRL
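Detergent-free condition (0.00005% Triton X-100) in acetate buffer pH 5.5 with DTT. 1.5 nM enzyme and compound were pre-mixed 15 min, then 2 uM Z-FR-AMC substrate added; reaction progress from fluorescence change between first and third reads (60 s).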
Marburg entry inh: blocks Marburg virus binding to or entry into cells; Marburg virus pseudotyped entry inhibition, cell reporter; control for the full effect not named in the record; about a third of the inactives were read at about 46 µM; Potency, µM (doses to about 37.8 µM), for the others: at the top dose activity change, negative = inhibition, usual class: inhibitors; hit rate 1.8% among 300,000; AID 540276; active = well fitted inhibition curve with a large enough effect; inconclusive = small, poorly fitted or top-dose-only effect, or effect the other way; inactive = flat fitted curve, though single readings scatter; tested in HEK293 cells; about a fifth of its hits are not listed in these tables; note: % is set by controls: 0 for no effect and ±100 for the full control effect; luciferase read-out
SARS PLP yeast: blocks SARS-CoV papain-like protease in a yeast assay; S. cerevisiae expressing SARS-CoV PLpro, growth rescue; control for the full effect not named in the record; Potency, µM (highest dose often 32.9 µM), for inactives: top-dose activity, positive = growth rescue; hit rate 0.19% among 330,000; AID 485353; note: 0% is about no effect; nearly all actives have a fitted effect of over 55% in size; growth read by luminescence after 48 h
StopGo reporter: FMDV 2A StopGo reporter, luciferase signal; hit rate 1.2% among 410,000; AID 1159524; human cells with a luciferase reporter of 2A StopGo recoding; control for the full effect not named in the record; Potency, µM (top dose mostly 57.9 µM), inactives show at the top dose signal change, negative = less light; active = well fitted falling curve with a large enough effect; inconclusive = small, poorly fitted or top-dose-only effect; inactive = no such curve, though single readings can be large or run the other way; tested in HEK293T cells; note: % is set by controls: 0 for no effect and ±100 for the full control effect; nearly all actives have a fitted effect of over 45% in size; luciferase light after 4 h
Cruzain Triton: cruzain (T. cruzi) inhibition with detergent | Potency, µM, for inactives: max response, negative = inhibition, usual class: inhibitors | purified cruzain, Z-FR-AMC fluorescence, 0.01% Triton | hit rate 0.43% among 200,000; active = well fitted curve in the direction sought with a large enough effect; inconclusive = small, poorly fitted or top-dose-only effect, or another doubt; inactive = no such curve, though single readings can be large; an effect the other way counts as inactive or inconclusive;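 note: plate controls were neutral wells for no effect and buffer without enzyme for full effect; nearly all actives have a fitted effect of over 40% in size; top concentration of the series not given in the record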
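Z-FR-AMC hydrolysis (2 uM substrate) by cruzain (1.5 nM) monitored kinetically at ex 360/em 450 nm after 15 min room-temperature compound exposure; 0.01% Triton X-100, pH 5.5, 5 mM DTT.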
NS1 function inh: influenza NS1 inhibition | S. cerevisiae slowed by influenza A NS1, growth recovery by OD600 | AID 2326 | Potency, µM (doses to about 46.1 µM), for the others: at the top dose activity, positive = more growth | hit rate 0.4% among 270,000; note: actives are rising curves; nearly all actives have a fitted effect of over 50% in size
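Compounds were scored for reversing the slow growth caused by influenza A NS1 in S. cerevisiae, measured by optical density at 600 nm. Assay medium contained 2% galactose at pH 6.0; NS1-free yeast of the same strain were the positive control.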
RE007 growth inh: less growth of the S. pombe RE007 Vpr strain. hit rate 0.21% among 360,000. S. pombe RE007 Vpr strain, BacTiter-Glo ATP luminescence, 24 h; control for the full effect not named in the record. Potency, µM (top dose mostly 92.2 µM), inactives show at the highest dose activity change, negative = less growth; active = well fitted falling curve with a large enough effect; inconclusive = small, poorly fitted or top-dose-only effect; inactive = no such curve, though single readings can be large or run the other way;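 note: % is set by controls: 0 for no effect and ±100 for the full control effect; nearly all actives have a fitted effect of over 50% in size; the assay follows cell death caused by Vpr and the record does not say whether a fall means rescue or toxicity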
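Fission yeast strain RE007, carrying one chromosomally integrated HIV-1 vpr copy, was seeded at OD 0.01 in PMG+AL medium with 23 nL pinned compound. After 24 h at 30 °C and 99% humidity, viability was read by BacTiter-Glo luminescence.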
LASV entry inh: blocks Lassa virus binding to or entry into cells; Lassa virus pseudotype entry inhibition, cell reporter; control for the full effect not named in the record; Potency, µM (top dose mostly 37.9 µM), without a hit: at the highest dose activity change, negative = inhibition, hits mostly inhibitors; hit rate 1.2% among 300,000; active means well fitted inhibition curve with a large enough effect; inconclusive means small, poorly fitted or top-dose-only effect, or effect the other way; inactive means flat fitted curve, though single readings scatter; tested in HEK293 cells; note: % is set by controls: 0 for no effect and ±100 for the full control effect; nearly all actives have a fitted effect of over 50% in size; luciferase read-out
An asterisk follows results filed as active; ? = inconclusive; nt = not tested or not shown; [ ] = another dose, or the depositor's remark. Unless noted, calls come from the whole dose curve; as a rule, active means well fitted rising curve with a large enough effect; inconclusive means small, poorly fitted or top-dose-only effect; inactive means no such curve, though single readings can be large or run the other way. Potency is the fitted concentration of half-maximal effect.

structure,Cruzain noTriton,Marburg entry inh,SARS PLP yeast,StopGo reporter,Cruzain Triton,NS1 function inh,RE007 growth inh,LASV entry inh
Cc1cnc(C(=O)NCC(=O)Nc2ccccc2Br)cn1,nt,1%[46.1 µM],-1%,11%,nt,nt,-3%,26%
O=C(Cc1nnc(NC(=O)Nc2ccccc2)s1)Nc1ccccc1,nt,nt,-2%,-9%,nt,-13%,-5%,nt
Cc1ccccc1C(=O)O/N=C(\N)Cc1cccs1,nt,?,-15%,2%,nt,-123%,-29%,9%[46.1 µM]
O=C(c1cccc(-c2nnc(-c3ccccc3)o2)c1)N1CCCCCC1,7%,?,-1%,7%,4.1%,-61%,-16%,5%
O=[N+]([O-])c1cccc(-c2nnc(C3CC3)o2)c1,nt,5%[46.1 µM],-1%,-16%,nt,-6%,4%,4%
O=S(=O)(NCC(c1ccccc1)N1CCc2ccccc21)c1ccccc1 (configuration not stated),5%,?,nt,-18%,-9.9%,nt,nt,-18%[46.1 µM]
CC(CCc1ccccc1)NC(=O)CSc1nc(N)cc(N)n1 (configuration not stated),-13%,?,-2%,-1%,3.1%,5%,-11%,-4%
COc1ccccc1-n1nnnc1SCC(=O)NC1CCCC1,-3%,?,0%,0%,2.3%,-5%,9%,-15%
COc1cc(NC(=O)N2CCOCC2)cc(OC)c1,2%,11%,1%,4%,0.7%,0%,-2%,16%
CC(Nc1cccc(C(=O)NC2CC2)c1)c1nnc(-c2ccccc2)o1 (configuration not stated),nt,?,-28%,7%,nt,nt,-11%,-24%[46.1 µM]
N#Cc1cccc(NC(=O)CCC2CCCC2)c1,2%,-21%[46.1 µM],-1%,19%,-0.9%,-31%,?,4%
Cc1cc(O)c(NC(=O)c2ccc(C)c([N+](=O)[O-])c2)cc1C,nt,-1%[46.1 µM],1%,59%[activator],nt,3%,-13%,-2%
CCOc1ccc(N(c2nc(-c3ccc(OC)c(OC)c3)no2)c2nc(-c3ccc(OC)c(OC)c3)no2)cc1,7%,15%[46.1 µM],nt,-17%,-1.0%,nt,nt,-5%[46.1 µM]
COc1cc(CN2CCC(n3nccc3NC(=O)CCCc3ccccc3)CC2)ccc1O,nt,-11%[46.1 µM],0%,-1%,nt,5%,3%,?
CC(C)C[C@H](NC(=O)N1CCn2c1nc1ccccc12)C(=O)N[C@H](Cc1ccccc1)C(=O)O,nt,nt,-2%,-8%,nt,-2%,5%,nt
c1ccc(-c2oc3ncnc(NCCN4CCOCC4)c3c2-c2ccccc2)cc1,?,?,0%,nt,-3.5%,-116%,-22%,-35%
COc1cccc(NC(=O)CCc2nc(-c3cc(OC)c(OC)c(OC)c3)no2)c1,?,-22%[46.1 µM],nt,-24%,-11%,nt,nt,-2%[46.1 µM]
O=C(CN1C(=O)C2C3CCC(C3)C2C1=O)NCc1ccco1 (configuration not stated),nt,23%[46.1 µM],0%,1%,nt,2%,-13%,-6%
CN1C(=O)c2ccc(NC(=O)c3cccc(N4C(=O)CCC4=O)c3)cc2C1=O,nt,nt,-1%,6%,nt,0%,-11%,nt
CC(=O)c1nc(N2C(=O)CC(Cc3ccccc3)C2=O)sc1C (configuration not stated),-5%,-23%,-11%,7%,-4.3%,1%,0%,5%
CCC1Oc2ccccc2N(CC(=O)NCCN2CCc3ccccc3C2)C1=O (configuration not stated),-1%,-11%,-17%,nt,0.4%,-1%,1%,6%
CC(C)CCNC(=O)c1cnc2sc(N3CCCCC3)nn2c1=O,-6%,nt,nt,?,-5.0%,nt,nt,?
C/C=C(\C)C(=O)N1CCC(C(=O)c2ccccc2)CC1,nt,6%[46.1 µM],0%,12%,nt,5%,-2%,9%[46.1 µM]
CCOCCCNC(=S)NCCc1ccccc1,-11%,?,8%,41%[activator],1.0%,-5%,11%,?
O=C(Cc1ccccc1)OCC(=O)c1ccccc1,nt,-5%[46.1 µM],-5%,23%,nt,2%,-11%,15%[46.1 µM]
CC(C)c1ccc(Nc2c(-c3ccc(N4CCOCC4)cc3)nc3ncccn23)cc1,-2%,26%[46.1 µM],nt,-5%,-2.1%,nt,nt,20%[46.1 µM]
COc1cccc(/C=N/Nc2cc(N3CCOCC3)ncn2)c1O,nt,?,17%,1%,nt,-11%,3%,?
COC(=O)c1cccnc1N1CCN(c2ccccc2F)CC1,4%,-19%,-2%,0%,0.7%,2%,-4%,3%
O=P(c1ccccc1)(c1ccccc1)N(c1ccccc1)c1ccccc1,?,-25%,6%,20%,-1.3%,6%,0%,10%
Cn1nc(C(=O)N2CCC(C(N)=O)CC2)c2c1-c1ccccc1SC2,nt,nt,1%,8%,nt,-13%,1%,nt
CC(O)(c1cccs1)C(C(=O)O)c1ccccc1 (configuration not stated),nt,-10%,nt,24%,nt,nt,3%,-3%[46.1 µM]
O=C(CCNC(=O)c1ccc([N+](=O)[O-])cc1)NCC1COc2ccccc2O1 (configuration not stated),nt,8%,-4%,-18%,nt,nt,2%,2%
C=CCn1c(=O)c(C(=O)OCC)c(O)c2ccccc21,nt,nt,0%,-15%,nt,0%,-8%,nt
Cc1ccc(Cn2c(=O)n(Cc3ccccc3)c(=O)c3oc4ccccc4c32)cc1,4%,nt,nt,-9%,-0.4%,nt,nt,20%[46.1 µM]
Cc1cc(OC(C)C(=O)NCC2CCC(C(=O)O)CC2)c2c(C)c(Cc3ccccc3)c(=O)oc2c1 (configuration not stated),nt,nt,1%,23%,nt,11%,4%,nt
CCC1CCCCN1CCCNC(=O)CC1Oc2ccccc2NC1=O (configuration not stated),-1%,nt,4%,-7%,2.4%,14%,-2%,nt
Cn1nnnc1SCC(=O)c1ccc2c(c1)OCCO2,nt,9%[46.1 µM],0%,69%[activator],nt,3%,6%,22%
CCCc1cnc2c(c1SCC(=O)N1CCC(C)CC1)c(=O)n(C)c(=O)n2C,14%,nt,nt,-22%,-2.0%,nt,nt,-8%[46.1 µM]
CCCCOc1nc(N)nc(-c2ccccc2)n1,-4%,-12%,2%,-5%,-3.1%,-5%,-13%,-14%
CCCCCOC(=O)c1c(N)n(CCOC)c2nc3ccccc3nc12,?,?,-1%,0%,-22%,-43%,-29%,-2%
CN(Cc1ccon1)C(=O)C1CCN(C2CCN(CCCc3ccccc3)CC2)CC1,nt,-25%,0%,-12%,nt,9%,-6%,-6%
CN(Cc1ccccc1OCCO)CC1CCCN(CCc2ccc(Cl)cc2)C1 (configuration not stated),nt,nt,-1%,-13%,nt,-3%,-5%,nt
COc1ccc(CC(=O)Nc2nncs2)cc1OC,-5%,3%,9%,24%,0.4%,-3%,15%,?
COc1ccc(NC(=O)Cn2nnc(C(=O)NCc3ccc4c(c3)OCO4)c2N)c(OC)c1,nt,nt,-5%,?,nt,-8%,1%,nt
CCc1c(C)nc(SCC(=O)N2CCCCC2)[nH]c1=O,nt,nt,0%,4%,nt,-6%,-9%,nt
CC(Cc1ccccc1)NC(=O)NC(C)Cc1ccccc1 (configuration not stated),-8%,15%,-8%,29%,-0.8%,7%,-7%,?
COC(=O)CCC1(C(N)=O)CCC(=O)c2ccccc21 (configuration not stated),nt,23%,nt,-17%,nt,nt,-4%,0%[46.1 µM]
Cc1ccc2[nH]c(C(=O)N3CCCC(Nc4ccc(F)cc4)C3)cc2c1 (configuration not stated),nt,nt,-11%,-15%,nt,-23%,7%,nt
Cc1cc(Nc2ccccc2)n(CCO)n1,-4%,3%,-3%,19%,-1.3%,3%,-28%[3.69 µM],?
O=C(c1cc2ccccc2o1)c1cccs1,-20%,-17%,-10%,11%,-11%,-22%,?,-17%

Going on with the list.
structure,Cruzain noTriton,Marburg entry inh,SARS PLP yeast,StopGo reporter,Cruzain Triton,NS1 function inh,RE007 growth inh,LASV entry inh
COc1ccc(OC(=O)N2C/C(=C/c3ccccc3)C(=O)/C(=C\c3ccccc3)C2)cc1,nt,?,nt,32µM*,nt,nt,12%,7.1µM*
CCOC(=O)c1ccc(NC(=O)Cc2noc3ccc(C)cc23)cc1,6%,nt,nt,-1%,-0.7%,nt,nt,26%[46.1 µM]
CC(=O)Nc1ccccc1C(=O)OCC(=O)c1cccc2ccccc12,-3%,-4%,-4%,0%,-5.2%,-68%,-12%,?
COc1cc(CCC(=O)OCc2nnc(-c3ccccc3)o2)cc(OC)c1OC,5%,-15%,4%,0%,3.1%,-13%,10%,3%
COCCN(C(=O)CSc1nn(-c2ccc(F)cc2)c(=S)s1)c1c(N)n(CC(C)C)c(=O)[nH]c1=O,nt,?,nt,?,nt,nt,0%,?
CC(C)(C)C(=O)Nc1ccccc1-c1nc2ccccc2[nH]c1=O,nt,11%[46.1 µM],7%,0%,nt,7%,16%,27%[46.1 µM]
Cc1nn(CC(=O)Nc2ccccc2F)c(=O)c2c(C)n(-c3ccc(Cl)cc3)nc12,3%,nt,nt,-29%,-1.0%,nt,nt,3%[46.1 µM]
O=C(CCNC(=O)N1C[C@H]2C[C@@H](C1)c1cccc(=O)n1C2)Nc1cccc(Cl)c1,nt,nt,2%,-12%,nt,-9%,0%,nt
COc1ccc(/C=C2\Oc3cc(OCC(=O)N4CCC(C(=O)O)CC4)ccc3C2=O)c(OC)c1,nt,nt,-16%,-22%,nt,23%,-6%,nt
O=C(Cc1ccc(Cl)cc1Cl)OCC(=O)N1CCCCC1,nt,16%[46.1 µM],-2%,30%[activator],nt,-11%,-5%,?
COC(=O)C1NN=C(C(=O)c2ccc(Cl)cc2)C1c1ccc(OC)cc1 (configuration not stated),-7%,4%,6%,-13%,-5.2%,-4%,-6%,-8%

Rows are unselected; 4.5% or so of the library scored in one or more.
